Source: PubChem
Marburg entry: inhibitors of Marburg virus binding or entry into cells. AID 720532. Marburg virus pseudotype entry/binding inhibition, cell-based; control for the full effect not named in the record; many of its hits are not listed in these tables. Potency, µM (series often up to 49.2 µM), inactives show top-dose activity change, negative = inhibition, usual class: inhibitors. 6.5% of 18,000 active; active means well fitted inhibition curve with a large enough effect; inconclusive means small, poorly fitted or top-dose-only effect; inactive means no such curve, though single readings can be large or run the other way; tested in HEK293 cells; note: luciferase read-out
Lassa entry: inhibitors of Lassa virus binding or entry into cells; Lassa virus pseudotyped entry inhibition, cell-based qHTS; control for the full effect not named in the record; many of its hits are not listed in these tables; Potency, µM (highest dose often 49.2 µM), for the others: top-dose activity change, negative = inhibition, hits mostly inhibitors; 4.1% of 18,000 active; AID 720533; active = well fitted inhibition curve with a large enough effect; inconclusive = small, poorly fitted or top-dose-only effect; inactive = no such curve, though single readings can be large or run the other way; tested in HEK293 cells; note: luciferase read-out
Starred values were filed as active, the others as inactive; ? = inconclusive; . = no result given; & = joins results of further samples; [ ] = another dose, or the depositor's remark. % is set by controls: 0 for no effect and ±100 for the full control effect; potency is the fitted concentration of half-maximal effect. This is a subset; the hit share may differ from the screen's.

Preview, 2 compounds:
SMILES	Marburg entry	Lassa entry
CC(=O)c1ccccc1-c1ccc2c(c1)CC(CNC(=O)Cc1c[nH]c3ccccc13)O2 (stereo not given)	-2%	-12%
COC1=CC(C)C2CC3OC(=O)CC4C(C)=C(OC)C(=O)C([C@]2(C)C1=O)[C@]34C (stereo not given in full)	8%	-7%

This part in full, previewed entries included:
SMILES	Marburg entry	Lassa entry
CC(=O)c1ccccc1-c1ccc2c(c1)CC(CNC(=O)Cc1c[nH]c3ccccc13)O2 (stereo not given)	-2%	-12%
COC1=CC(C)C2CC3OC(=O)CC4C(C)=C(OC)C(=O)C([C@]2(C)C1=O)[C@]34C (stereo not given in full)	8%	-7%
CC(C)[C@@H](OCc1ccccc1)[C@H](C)C=NOC[C@@H](O)COCc1ccco1	14%[8.59 µM]	-28%[8.59 µM]
CC1=CC(=O)C2=C(C)C[C@@H](O)[C@@H]3[C@@H](OC(=O)[C@H]3C)[C@H]12	2%[17.8 µM]	-3%[17.8 µM]
Cc1cccc(CN2CCN(C3CN(Cc4cn(Cc5ccc(C(F)(F)F)cc5)nn4)S(=O)(=O)C3)CC2)c1 (stereo not given)	-9%	-8%
CO[C@@H]1C[C@@H](C[C@H]2CC[C@H](C)[C@@H]([C@@H](C)C(=O)O)O2)O[C@]2(O[C@](C)([C@H]3CC[C@@](C)(C4OC([C@H]5O[C@@](O)(CO)[C@H](C)C[C@@H]5C)C[C@@H]4C)O3)C[C@H]2C)[C@@H]1C (stereo not given in full)	?	3.2µM*
CC(=O)OC[C@H]1O[C@H](CC=NO[C@H](C)c2cn([C@H](CO)Cc3ccccc3)nn2)C=C[C@@H]1OC(C)=O	13%[8.59 µM]	.
COc1ccc2c(c1)O[C@@H](c1cccc(C(F)(F)F)c1)[C@H](OC(=O)N[C@H]1CCCc3ccccc31)C2=O	21%	-20%
C#CCN1CC(COc2ccccc2)OCCS1(=O)=O (stereo not given)	10%	.
COc1cc(C(C)=O)cc(OC)c1O	14%	3%
CC1(C)C(O)CC(O)[C@]2(C)C1CC(O)[C@]1(C)C2CC[C@@]2(C)C(c3ccoc3)CC3OC312 (stereo not given in full)	?	7%
CC(=O)OC1CC2C(C)(C)C(=O)CC[C@]2(C)C2CC[C@]3(C)C(=CC(=O)OC3c3ccoc3)[C@]12C (stereo not given in full)	-2%	-7%
CN[C@H](CC(C)C)C(=O)N[C@H]1C(=O)N[C@@H](CC(N)=O)C(=O)N[C@H]2C(=O)N[C@H]3C(=O)N[C@H](C(=O)N[C@@H](C(=O)O)c4cc(O)cc(O)c4-c4cc3ccc4O)[C@H](O)c3ccc(c(Cl)c3)Oc3cc2cc(c3O[C@@H]2O[C@H](CO)[C@@H](O)[C@H](O)[C@H]2O[C@H]2C[C@](C)(N)C(O)[C@H](C)O2)Oc2ccc(cc2Cl)[C@H]1O (stereo not given in full)	16%&2%	-17%
COc1ccc([C@]23Cc4ccccc4[C@H](O2)C2=C(CC(C)(C)CC2=O)O3)cc1	6%[8.59 µM]	-3%[8.59 µM]
O=[N+]([O-])c1c(Cl)cccc1-c1c[nH]cc1Cl	-13%	-20%
CN(CCO)C(=O)c1cn(C2CCCN(Cc3ccc4ccccc4c3)C2)nn1 (stereo not given)	3%	7%
O=C(Nc1n[nH]c2nc(-c3ccc(O)cc3)c(Br)cc12)C1CC1	?	.
C[N+]1(CC2COC(c3ccccc3)(C3CCCCC3)O2)CCCCC1 (stereo not given)	-17%	-26%
COc1ccc(OC)c(-c2ccnc(-n3ncc(C(=O)N(C)CCc4ccccn4)c3C)n2)c1	-9%	1%
Oc1cccc(-c2nc(-c3ccccc3)[nH]c2-c2ccncc2)c1	7.9µM*	.
Cc1ncc2c(c1CNS(=O)(=O)c1cccs1)CCN(C(=O)/C=C/c1ccc(F)cc1F)C2	?	-23%
O=C(NC1CCCC1)O[C@@H]1C(=O)c2cc(Br)ccc2O[C@H]1c1ccc2c(c1)OCO2	-21%	5%
Cc1ccc2c(CC(=O)N3CCOc4ccc(CN5CCOCC5)cc4C3)cc(=O)oc2c1	-24%	-6%
COc1ccc(C(=O)Oc2ccc3c(-c4ccc(OC)cc4)cc(=O)oc3c2)cc1	49%[activator]	5%
C=CCOC(=O)N[C@H](c1ccco1)C(C(C)=O)C(C)=O	18%	1%

(listing goes on)
SMILES	Marburg entry	Lassa entry
CCCCN1Cc2ccccc2Oc2cc(Br)ccc2S1(=O)=O	-16%	21%
COC(=O)C1=C[C@H]([C@@H](C)[C@H](OC)c2ccccc2Br)[C@H]2[C@H]1c1ccccc1N2C	-16%&-8%[8.59 µM]	.
c1ccc(-c2nc(-c3cccc4ccccc34)c(Nc3ccc4ccccc4c3)o2)cc1	4%	1%
CC(CN(C)C)CN1c2ccccc2Sc2ccc(C(F)(F)F)cc21 (stereo not given)	10µM*	32µM*
CCCCCCCCCCCCCCCC(=O)NC(C)C(=O)O (stereo not given)	0%	3%
COc1ccc(NC(=O)c2ccc(-c3ccc(-c4noc(C)n4)cc3C)cc2)cc1N1CCN(C)CC1	6.3µM*	16µM*
CCCC(Cn1cncn1)c1ccc(Cl)cc1Cl (stereo not given)	-6%	?
Oc1ccc(-c2cccnc2)cc1CNC1CN2CCC1CC2 (stereo not given)	-22%	-5%
CCCCc1nc2c(c3c1C[C@H](C)OC3)CN(S(=O)(=O)c1ccc(C)cc1)CC2	5%[8.59 µM]	.
c1ccc(-c2nc(-c3cccs3)c(NC3CCCCC3)o2)cc1	19%	4%
CC(C)C[C@@H](CC(=O)N[C@H](CC(=O)N[C@@H]1CCNC[C@H]1C(=O)N[C@H](CC(=O)N[C@@H](CCC(=O)O)CC(=O)O)Cc1ccccc1)C(C)C)NC(=O)[C@@H]1CNCC[C@H]1N	0%	2%
CC(=O)N(Cc1ccc2c(c1)OCO2)Cc1cc2ccc(C)cc2nc1-c1cccc(C)c1	?	2%
C[C@@H]1[C@@H]2Cc3ccc(O)cc3[C@@]1(C)CCN2CC1CC1	-14%	-9%
O=C(O[C@H]1CN2CCC1CC2)N1CCc2ccccc2[C@@H]1c1ccccc1	?	?
CSCCC(N)C(=O)NC(CC(C)C)C(=O)NC(Cc1ccccc1)C(=O)O (stereo not given)	9%	-12%
CC[C@@]12C=C(/C=C/c3ccccc3)[C@](CC)(C1)[C@H](c1ccccc1)CC2=O	-11%	4%
C#CCCCCCCCCCCCC(=O)CC(O)COC(C)=O (stereo not given)	-8%	-26%
Cc1cc(=O)c(C(=O)NCCc2ccccn2)c2n1-c1ccccc1SC(c1cccs1)C2 (stereo not given)	-24%	1%
COc1ccc(-c2ccc(C(=O)NCC3Cc4cccc(-c5nc(C)cnc5C)c4O3)o2)cc1 (stereo not given)	-31%	-23%
CCCCC/C=C\C/C=C\C/C=C\C/C=C\CCCCCC(=O)NC(C)C(=O)O (stereo not given)	-21%	-13%
C=C1CCC(O)C/C1=C\C=C1/CCCC2(C)C1CCC2C(C)/C=C/C(C)C(C)C (stereo not given)	27%	-29%
Oc1c(Cl)c(Cl)c(Cl)c(Cl)c1Cl	-13%	3%
Cc1nnc2n1-c1ccc(Cl)cc1C(c1ccccc1Cl)=NC2	15%	-12%
CCCCn1c(C)cc2c(c1=O)[C@H]1O[C@](CCCCN3C(=O)c4ccccc4C3=O)(Cc3ccccc31)O2	5%[8.59 µM]	4%[8.59 µM]
C=CCN1C(=O)[C@]2(OCCC=C[C@@H]2C)c2cc(OC)ccc21	37%[8.59 µM]	31%[8.59 µM]

Arranged by count of non-hydrogen atoms (low to high): three of the compounds above.
SMILES	Marburg entry	Lassa entry
c1ccc(-c2nc(-c3cccs3)c(NC3CCCCC3)o2)cc1	19%	4%
CCCCC/C=C\C/C=C\C/C=C\C/C=C\CCCCCC(=O)NC(C)C(=O)O (stereo not given)	-21%	-13%
Cc1cc(=O)c(C(=O)NCCc2ccccn2)c2n1-c1ccccc1SC(c1cccs1)C2 (stereo not given)	-24%	1%

Later entries.
SMILES	Marburg entry	Lassa entry
CC(C)C[C@H]1COc2cccc(N3CCCCC3)c2S(=O)(=O)N1	17%&-13%	?
COC1=C[C@H]2C3=C([C@H]2C1=O)[C@H](NC(C)=O)CCc1cc(OC)c(OC)c(OC)c13	4%[17.8 µM]	-10%[17.8 µM]
CCCCC/C=C\C/C=C\CCCCCCCC(=O)NC(C)C(=O)O (stereo not given)	1%	-2%
O=C1OC2(CCCCC2)CC2=C1[C@H]1O[C@](CCCCN3C(=O)c4ccccc4C3=O)(Cc3ccccc31)O2	?	-21%[8.59 µM]
c1cc2ccc3cccc4ccc(c1)c2c34	?	-21%[107 µM]
CCN(CC)CCSC(=O)C(c1ccccc1)c1ccccc1	13%&-18%	4%&-2%
N[C@@]1(C(=O)O)CN[C@H](C(=O)O)C1	-3%	-5%
CC(C)C[C@H]1COc2cc(Br)ccc2S(=O)(=O)N1	22%	2%
COc1ccc(-c2ccc(CN3C(CC(C)C)C(=O)N(Cc4cn(CCC5OCCCO5)nn4)CCS3(=O)=O)cc2)cc1OC (stereo not given)	21%	12%
NNc1ccccc1	2%&8%	?
COc1ccc2[nH]cc(C3=CCNCC3)c2c1	8%&-14%	-4%&-23%
CNC(=S)NCCCCc1cnc[nH]1	1%	2%
COc1ccc2c(c1)C(=O)[C@H](OC(=O)Nc1ccc(C)c(Br)c1)[C@@H](c1ccc(OC)c(Br)c1)O2	2%	-3%
COC(=O)c1c(OC)cc2c(c1C)Oc1c(Cl)c(OC(C)=O)c(Cl)c(C)c1C(=O)O2	7%	-4%
Cc1c(CC(C)(C)C(=O)O)n(Cc2ccc(Cl)cc2)c2ccc(F)cc12	1%	-5%
C[Se]CC[C@H](N)C(=O)O	11%	-13%
CN1C(C)(C)CCCC1(C)C	9%	24%
COCOCCn1cc(CN2CCS(=O)(=O)N(Cc3ccc(-c4ccc(F)nc4)cc3)C(C)C2=O)nn1 (stereo not given)	11%	-26%
C=C(CO[C@@H]1C=C[C@@H](c2ccccc2)O[C@@H]1COC)c1ccccc1	-4%[8.59 µM]	9%[8.59 µM]
COc1c2ccoc2nc2c(OC)c(O[C@@H]3O[C@H](C)[C@@H](O)[C@@H](O)[C@H]3O)ccc12	-12%	-22%
CC(C)CCCC(C)N (stereo not given)	-6%	-9%
CC(C)(S)C(=O)N[C@@H](CS)C(=O)O	-20%&28%	-5%&9%
C=C1/C(=C\C=C2\CCCC3(C)C2CCC3C(C)/C=C/C(O)C2CC2)CC(O)CC1O (stereo not given)	-5%	10µM*
O=C(Cn1cc(COc2ccccc2[N+](=O)[O-])nn1)c1ccc(O)cc1	42%[activator]	37%[activator]
COC1=C[C@H](C(=O)NCCNC(C)=O)[C@@]2(C)Cc3ccccc3[C@@H]2CC1=O	-20%[8.59 µM]	.

Next part; it opens with the three that closed the last part.
SMILES	Marburg entry	Lassa entry
C=C1/C(=C\C=C2\CCCC3(C)C2CCC3C(C)/C=C/C(O)C2CC2)CC(O)CC1O (stereo not given)	-5%	10µM*
O=C(Cn1cc(COc2ccccc2[N+](=O)[O-])nn1)c1ccc(O)cc1	42%[activator]	37%[activator]
COC1=C[C@H](C(=O)NCCNC(C)=O)[C@@]2(C)Cc3ccccc3[C@@H]2CC1=O	-20%[8.59 µM]	.
CC(=O)OC1CC(OC(C)=O)[C@]2(C)C(CC(OC(C)=O)[C@@]3(C)C4=CC(=O)OC(c5ccoc5)[C@]4(C)CCC32)C1(C)C (stereo not given in full)	-7%	15%
C[C@@H]1C=CCCO[C@]12C(=O)N(Cc1ccc(Br)cc1)c1cccc(Br)c12	7%[8.59 µM]	-2%[8.59 µM]
COc1ccccc1C(=O)N(Cc1cc2cccc(C)c2nc1N1CCC(O)CC1)C1CC1	9%	?
COC(=O)N[C@@H](c1ccccc1)[C@]1(C(C)=O)CCCC1=O	-4%[8.59 µM]	10%[8.59 µM]
Clc1cccc(C=NC=Nc2cccc(Cl)c2)c1	11%	14%
CN(CCO)C(=O)c1cn(C2CCCN(Cc3cccc4ccccc34)C2)nn1 (stereo not given)	-5%	-9%
COc1ccc2c(CN(C)Cc3ccccc3)cc(=O)oc2c1	58%[activator]	78%[activator]
CCCCC[C@H](O)/C=C/[C@H]1OC(=O)C[C@H](O)[C@@H]1C/C=C\CCCC(=O)O	0%	0%
CC(C)C[C@@H]1COc2cc(N3CCCC3)ccc2S(=O)(=O)N1	17%	12%
O=C(O)Cc1ccc(O)c(O)c1	8%	-18%
C/C=C1\[C@H]2C=C(C)C[C@]1(N)c1ccc(=O)[nH]c1C2	14%	-8%
CCCCC1=CC2=C(OC(C)=O)C(=O)C(C)(OC(=O)CC)C(=O)C2=CO1 (stereo not given)	6%	0%
CCOc1ccc(-c2nc3ccc(-c4nc5ccc(N6CCN(C)CC6)cc5[nH]4)cc3[nH]2)cc1	10µM*	?
OC[C@H]1NC[C@@H](O)[C@@H](O)[C@H]1O	10%	2%
C=C(C)[C@H]1CC=C(CO)CC1	22%	-7%
Cc1cc2cc3c(C)cc(=O)oc3c(C)c2o1	18%[17.8 µM]	5%[17.8 µM]
C#CCn1c(=O)c2c(ncn2C)n(C)c1=O	14%	0%
N[C@@H](COP(=O)(O)O)C(=O)O	19%&4%&1%	-5%&-10%&6%
NC(=S)NCCC[C@H](N)C(=O)O	13%	4%
Clc1ccc([C@@H]2C[C@H]3CC[C@@H]2N3)cn1	-16%&0%	-12%&1%
O=C(Nc1n[nH]c2cc(-c3ccc(F)cc3)ccc12)C1CC1	?	.
N#Cc1cccc(OCc2cn(CC(=O)c3ccc(O)cc3)nn2)c1	1%	-15%
COC[C@H]1O[C@H](c2ccccc2)C=C[C@H]1OCC=C(C)C	42%[activator][8.59 µM]	17%[8.59 µM]
COc1cc(OC)c2nc(-c3cc4c(c(OC)c3)OCCN(C(=O)CC3NC(=O)c5ccccc53)C4)cc(C)c2c1 (stereo not given)	-4%	-35%
